Source: PubChem (National Center for Advancing Translational Sciences (NCATS))
StopGo reporter: lowers the luciferase signal of an FMDV 2A StopGo reporter; actives 1.2% (n = 410,000); AID 1159524; human cells with a luciferase reporter of 2A StopGo recoding; control for the full effect not named in the record; Potency, µM (series often up to 57.9 µM), for inactives: top-dose signal change, negative = less light; active = well fitted falling curve with a large enough effect; inconclusive = small, poorly fitted or top-dose-only effect; inactive = no such curve, though single readings can be large or run the other way; tested in HEK293T cells; also: % is scaled to controls: 0 for no effect and ±100 for the full control effect; nearly all actives have a fitted effect of over 45% in size; luciferase light after 4 h
SARS PLpro yeast: SARS-CoV PLP inhibition in yeast. S. cerevisiae expressing SARS-CoV PLpro, growth rescue; control for the full effect not named in the record. Potency, µM (series often up to 32.9 µM), without a hit: at the top dose activity, positive = growth rescue. actives 0.19% (n = 330,000); active means well fitted rising curve with a large enough effect; inconclusive means small, poorly fitted or top-dose-only effect; inactive means no such curve, though single readings can be large or run the other way; also: 0% is about no effect; nearly all actives have a fitted effect of over 55% in size; growth read by luminescence after 48 h
RE007 growth inh: less growth of the S. pombe RE007 Vpr strain. S. pombe RE007 Vpr strain, BacTiter-Glo ATP luminescence, 24 h; control for the full effect not named in the record. Potency, µM (series often up to 92.2 µM), for inactives: at the top dose activity change, negative = less growth. actives 0.21% (n = 360,000). AID 651644; active = well fitted falling curve with a large enough effect; inconclusive = small, poorly fitted or top-dose-only effect; inactive = no such curve, though single readings can be large or run the other way;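 also: % is scaled to controls: 0 for no effect and ±100 for the full control effect; nearly all actives have a fitted effect of over 50% in size; the assay follows cell death caused by Vpr and the record does not say whether a fall means rescue or toxicity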
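Fission yeast RE007 carrying one integrated HIV-1 vpr copy, seeded at OD 0.01 in PMG+AL medium with 23 nL pinned compound. Grown 24 h at 30 degrees; viability read by BacTiter-Glo luminescence after 5 min.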
Numbers without * were called inactive; ? = inconclusive; & = joins results of further samples; [ ] = remark or other dose. Potency is read from the fitted curve at half-maximal effect.

SMILES | StopGo reporter | SARS PLpro yeast | RE007 growth inh
COc1ccc(/C=C/C(=O)OCC(=O)NC(C)CCc2ccccc2)cc1OC (stereo not drawn) | ? | -3% | 12%
O=C(CN1C(=O)NC2(CCOc3ccccc32)C1=O)Nc1cccc(Cl)c1 (stereo not drawn) | -18% | 5% | 0%
CCOc1ccc(NC(=O)CN2C(=O)NC3(CCCCCC3)C2=O)cc1 | -2% | 0% | -5%
CCN(C[C@H]1N[C@@](Cc2ccccc2)(C(=O)OC)[C@H]2C(=O)N(C)C(=O)[C@@H]12)C(=O)COc1ccccc1 | -5% | -2% | -7%
COC(=O)C[C@H](NC(=O)Cn1cnc2c(OCc3ccccc3)ncnc21)C(=O)OC | 7% | -2% | 8%
CC(=O)Nc1ccc(C(=O)COC(=O)c2cc(C)oc2C)c(F)c1 | -2% | -20% | 0%
O=C(CCc1ccccc1)OCC(=O)c1ccc([N+](=O)[O-])cc1 | 5% | 1% | 5%
COC(=O)[C@H](CCSC)NC(=O)Cn1ccc(NC(=O)OCc2ccccc2)nc1=O | 7% | 0% | 2%
COc1ccc(S(=O)(=O)N2CCCCCC2)cc1C(=O)N(C)CC(=O)Nc1ccccc1C(F)(F)F | ? | 3% | -7%
CCn1nc(C(=O)NNC(=O)c2cc(Cl)ccc2OC)c2ccccc2c1=O | ? | -16% | -19%
CCOC(=O)c1c(N2C(=O)Nc3ccccc3N2O)n[nH]c1-c1cccc(OC)c1 | -7% | 0% | 11%
CCN(C[C@H]1N[C@@](Cc2ccccc2)(C(=O)OC)[C@H]2C(=O)N(C)C(=O)[C@@H]12)C(=O)C1CCCCC1 | -8% | 1% | 5%
CN1C2CCC1C(C(=O)O)C(O)C2 (stereo not drawn) | -11% | 2% | -10%
Cc1cc(Cn2nc(-c3ccccc3)cc2C(=O)NCC2CC2)on1 | 1% | 3% | 10%
COc1ccc(SC[C@H](Cc2ccccc2)N2CC[C@@H](C(C)(C)C)CCC2=O)cc1 | -19% | -2% | -21%
NC(=O)c1ccccc1NS(=O)(=O)c1ccc(S(=O)(=O)N2CCCC2)cc1 | -12% | 9% | -5%
NS(=O)(=O)c1ccc(N2N=C(c3ccccc3)CC2c2ccccc2Cl)cc1 (stereo not drawn) | -25% | -35% | 2%
COc1ccccc1-c1nnc(SC)n1C | -11% | -1% | 1%
COc1ccc2cc(C=NS(=O)(=O)c3ccc(C)cc3)n(C)c2c1 | 15% | 2% | -8%
COc1ccc(C(=O)NCc2nnc(SCC(=O)Nc3ccc4c(c3)OCO4)o2)cc1 | 13% | 0% | -7%
CCC(C)Sc1ccc([C@H]2N[C@@](Cc3ccccc3)(C(=O)OC)[C@H]3C(=O)N(CC)C(=O)[C@@H]23)cc1 (stereo partly drawn) | ? | 20% | 7%
CN(CC(=O)Nc1ccc(F)cc1)C(=O)C1CCCC1 | 14% | -4% | 1%
CCOc1c(Cl)cc(CNCC(O)c2ccccc2)cc1OC (stereo not drawn) | -18% | 1% | -7%
Nc1nc(COC(=O)C2CC(=O)N(Cc3ccccc3)C2)nc(Nc2ccccc2)n1 (stereo not drawn) | -7% | -1% | -8%
C=CC[C@@H](CC(=O)NCCO)C(=O)NCCOC(=O)[C@@H](CC=C)Cc1ccc(F)cc1 | -13% | 2% | 9%
O=C(Nc1ccc(C(=O)N2CCCC(CO)C2)cc1)c1ccc(Br)o1 (stereo not drawn) | -1% | -1% | -2%
COc1ccc2c(c1)[C@@H]1[C@H](CO2)[C@H](c2ccccc2)[C@]2(C)C(=O)Nc3ccc(C)cc3C(=O)N12 | -28% | -1% | 6%
Cn1c(SCC(=O)NNC(=O)c2ccc(Cl)cc2)nnc1-c1cccnc1 | 4% | -4% | 3%
O=C1C=C(c2ccc(C(=O)O)cc2)C[C@@H](c2ccc(Cl)cc2)C1 | 28% | 2% | -3%
Cc1ccccc1OCC(=O)OCC(=O)NCCc1ccccc1 | 28% | -5% | 9%

The closing 4 compounds of the section before open the next one.
SMILES | StopGo reporter | SARS PLpro yeast | RE007 growth inh
COc1ccc2c(c1)[C@@H]1[C@H](CO2)[C@H](c2ccccc2)[C@]2(C)C(=O)Nc3ccc(C)cc3C(=O)N12 | -28% | -1% | 6%
Cn1c(SCC(=O)NNC(=O)c2ccc(Cl)cc2)nnc1-c1cccnc1 | 4% | -4% | 3%
O=C1C=C(c2ccc(C(=O)O)cc2)C[C@@H](c2ccc(Cl)cc2)C1 | 28% | 2% | -3%
Cc1ccccc1OCC(=O)OCC(=O)NCCc1ccccc1 | 28% | -5% | 9%
Cc1[nH]c2ccccc2c1C(=O)C(C)OC(=O)c1ccccc1NCCO (stereo not drawn) | 6% | -5% | 9%
CC(C)n1nc(C(=O)OCC(=O)N2CC(=O)Nc3ccccc32)c2ccccc2c1=O | -5% | 1% | 5%
Cc1onc(-c2ccccc2)c1C(=O)OCC(=O)N1CCC(C)CC1 | -17% | 0% | -8%
CC(=O)c1c(C)[nH]c(C(=O)OCC(=O)c2ccc3c(c2)NC(=O)CO3)c1C | -18% | -3% | 5%
COc1ccc(N2CCN(C(=O)CN3C(=O)NC(C)(C4CC4)C3=O)CC2)cc1 (stereo not drawn) | -15% | 2% | -3%
CCOc1ccc(S(=O)(=O)N2CCCCC2)cc1NS(=O)(=O)c1cccs1 | 10% | 1% | 3%
CCCCOc1ccc(C(=O)Nc2ccc3c(c2)OCO3)cc1 | 45%[activator] | 0% | 42%
Cc1ccc(C(=O)NCC(=O)OC(C)C(=O)Nc2ccccc2[N+](=O)[O-])s1 (stereo not drawn) | -4% | 5% | -1%
Cc1cc(C(=O)COc2ccc(Br)cc2F)c(C)n1C1CC1 | 11% | -11% | ?
O=C(COC(=O)CN1C(=O)c2ccccc2C1=O)Nc1cccc(F)c1 | -9% | 4% | -2%
CC(C)C(=O)Nc1cccc(C(=O)Nc2cc([N+](=O)[O-])ccc2F)c1 | -6% | -1% | -16%
COc1ccc(-c2cn(CCO)c(CCN)n2)cc1 | -20% | 2% | 20%
C[C@H]1CN([C@@H](C)CO)C(=O)c2cccc(NC(=O)C3CC3)c2O[C@H]1CN(C)S(=O)(=O)c1ccccc1 | 4% | -3% | 4%
COc1ccc(Cl)cc1NC(=O)CN(C)CC(=O)NCc1cccs1 | -14% | 24% | 3%
CC(C)NC(=O)Nc1cccc2c1O[C@H](CN(C)C(=O)Nc1ccc(C(F)(F)F)cc1)[C@@H](C)CN([C@H](C)CO)C2=O | 3% | 8% | 11%
COc1cc(NC(=O)CN2C(=O)C(=O)N(C3CCCC3)C2=O)cc(OC)c1 | -15% | -8% | 6%
N#Cc1cnn(-c2ccccc2)c1NC(=O)c1ccccc1F | -20% | -5% | 5%
COc1ccc(CCC(=O)OCC(=O)Nc2c(C)n(C)n(-c3ccccc3)c2=O)cc1 | -1% | 5% | 0%
COc1cc(C)ccc1OCC(=O)OCC(=O)c1cc(C)n(CC2CCCO2)c1C (stereo not drawn) | 6% | -3% | -6%
O=C(Nc1ccccn1)c1cc(-c2ccc(Cl)s2)nc2ccccc12 | -16% | 0% | 3%
CCOC(=O)[C@H]1[C@H]2COc3ccc(Br)cc3[C@@H]2N2C(=O)N(c3ccccc3)C(=O)[C@@]12C | ? | -1% | -13%
Cc1cc(SCC(=O)OCC(=O)NCC2CCCO2)c(C)cc1Br (stereo not drawn) | 2% | -1% | -4%
COc1cccc(NC(=O)COC(=O)c2c(C)nn(-c3ccccc3)c2C)c1 | 2% | 3% | -2%
Cc1cc2c(c(C)c1CCO[C@@H]1O[C@H](CO)[C@@H](O)[C@H](O)[C@H]1O)C(=O)[C@@H](C)[C@@H]2O | 4% | -11% | -4%
CCn1cc(C(=O)N2CCN(c3ccc(OC)cc3)CC2)c(=O)c2cc(S(=O)(=O)N3CCCCC3)ccc21 | 7% | 0% | 18%
CCN1C(=O)[C@H]2[C@H]3CN=C(SCc4ccc(Cl)cc4)N3[C@@](C)(C(=O)OC)[C@H]2C1=O | -24% | -10% | -23%
CCN(C(=O)COC(=O)/C=C/c1ccco1)c1c(N)n(Cc2ccccc2)c(=O)[nH]c1=O | -22% | 1% | -2%
COc1ccccc1C(=O)NCc1n[nH]c(=S)n1Cc1ccccc1 | 8% | -2% | 1%
COc1ccc(C(=O)OCC(=O)c2c[nH]c3ccccc23)cc1OC | 25% | 4% | -15%
Cc1cc(Cl)ccc1NC(=O)CN(C)C1=NS(=O)(=O)c2ccccc21 | -16% | -3% | 7%

Reprinted from the part before: 3 entries; new compounds follow.
SMILES | StopGo reporter | SARS PLpro yeast | RE007 growth inh
COc1ccccc1C(=O)NCc1n[nH]c(=S)n1Cc1ccccc1 | 8% | -2% | 1%
COc1ccc(C(=O)OCC(=O)c2c[nH]c3ccccc23)cc1OC | 25% | 4% | -15%
Cc1cc(Cl)ccc1NC(=O)CN(C)C1=NS(=O)(=O)c2ccccc21 | -16% | -3% | 7%
COc1ccc(-c2cc(C(=O)OCC(=O)NC3CC3)c3ccccc3n2)cc1 | 13% | 4% | 1%
CC(c1ccccc1)N1CC(C(=O)O)CC1=O (stereo not drawn) | 8% | 1% | 28%
O=C1OC[C@H]2CCCN2C(=O)[C@@H](CC(=O)N(CCO)Cc2ccccc2)C/C=C\CC[C@@H]1Cc1ccc(F)cc1 | -10% | -4% | 4%
COC(=O)[C@H]1C[C@H](O)CN1S(=O)(=O)c1ccc(Br)cc1F | -19% | 20% | -3%
COc1cc(O)c2c(=O)c3c(O)ccc(O)c3oc2c1 | -23% | 2% | -20%
C/C(=N\OCC(=O)Nc1ccc(Br)cc1)c1cccs1 | 11% | -11% | -15%
CCCCCCSc1cc(-c2nc3ccc(Cl)cn3c2NCCCC)ccc1OC | -26%&-23% | 3% | 3%&2%
COC(=O)[C@]1(C)N[C@H](CN(C)C(=O)NC(C)C)[C@@H]2C(=O)N(C)C(=O)[C@@H]21 | 0% | 1% | 3%
S=c1[nH]nc(-c2ccccn2)n1/N=C/c1ccc(-c2ccccc2Br)o1 | 0% | -3% | 0%
CCN(c1ccccc1)S(=O)(=O)c1ccc(OC)c(NC(=O)Cc2ccc(OC)c(OC)c2)c1 | ? | 1% | 4%
CC[C@]12c3[nH]c4cc(CCC(=O)N(C)C)ccc4c3CCN1C(=O)[C@@H](CC(=O)NCc1ccco1)C[C@@H]2C(=O)N1CCN(C(=O)C2CC2)CC1 | 5% | -1% | 6%
CCCCNC(=O)c1c(CSc2ccc(Cl)cc2)noc1C(=O)NCCC | -24% | 2% | -10%
Cc1ccc(S(=O)(=O)CCC(=O)OCC(=O)NC(C)c2ccccc2)cc1 (stereo not drawn) | -7% | 3% | -6%
CCN(C[C@H]1N[C@@](C)(C(=O)OC)[C@H]2C(=O)N(C)C(=O)[C@@H]12)S(=O)(=O)c1ccc(OC)cc1 | -24% | -1% | 0%
CN(CC(=O)Nc1ccccc1C(=O)NC1CC1)Cc1ccco1 | -14% | -11% | 3%
Nc1nc(-c2ccc(S(=O)(=O)N3CCCCC3)cc2)cs1 | -28% | 1% | -11%
CC(C)(C)OC(=O)C[C@H]1C/C=C\C[C@H](CC(=O)N(CCO)Cc2ccccc2)C(=O)N[C@H](C(C)(C)C)COC1=O | -18% | 0% | -9%
COc1ccc(NS(=O)(=O)c2cc(NC(=O)c3ccc(=O)[nH]c3)ccc2C)cc1 | 71%[activator] | 1% | 1%
CCOc1ccc(CCNC(=O)CCC(=O)c2cccs2)cc1OCC | -12% | 0% | 11%
COc1cc(C(=O)N2CCN(c3ccccc3O)CC2)ccc1OCC(=O)N1CCOCC1 | -12% | 6% | 2%
CC1CCCC/C1=N\NC(=S)NCCc1ccccc1 (stereo not drawn) | 58%[activator] | 3% | 3%
O=C(CN1C(=O)NC2(CCCCCC2)C1=O)Nc1ccc(Cl)c([N+](=O)[O-])c1 | -25% | 5% | 3%
C#CCOCCOCCOCCNc1nc(N2CCN(C(=O)[C@H](CCCCN)n3cc(CN)nn3)CC2)nc(N2CCN(C(=O)[C@H](CCC(=O)O)n3cc([C@@H](N)CCSC)nn3)CC2)n1 | -7% | 0% | -1%
O=C(NCc1ccccn1)C1CCN(C(=O)c2cc3sccc3n2Cc2ccc(F)cc2)CC1 | 0% | -3% | 1%
Cc1cc(NC(=O)COC(=O)c2ccc([N+](=O)[O-])cc2Cl)no1 | -14% | -1% | 4%
CC(C)(C)OC(=O)N[C@H](/C=C/c1ccccc1)C(=O)OC(C)(C)C | -14% | 0% | -8%
O=C(COc1ccccc1)N[C@@H]1c2ccccc2CC[C@H]1OCc1ccccc1 | -11% | -40% | -3%
CCC(=O)c1ccc(OCC(=O)N2CCN(S(=O)(=O)c3ccc(Cl)s3)CC2)cc1 | ? | 4% | 57%
COC(=O)C1=C(c2cccc(C#N)c2)C[C@@H]2CC[C@H]1N2C(=O)NCC1CC1 | -17% | -3% | 0%
CC(Sc1nc2c([nH]c3ccccc32)c(=O)n1C)c1ccccc1 (stereo not drawn) | -18% | 5% | 12%

This is a subset. The share of hits here may be higher or lower than overall.
